# eIF4H FP inh – inhibitors of RNA binding by human eIF4H; Q15056; eIF4H fluorescence polarization binding assay; inhibition, % at 35 µM; 290,000 compounds, 0.94% hits;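 active means 50% or more with normal probe brightness, or confirmed in later tests; inconclusive means above 50% with abnormal brightness, or retests that disagree; inactive means below 50% or failed in later tests; about a fifth of its hits are not listed in these tables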;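 further: calls also rest on retests at 20 µM and on dose response follow-up; 0% = protein and probe with vehicle and 100% = probe without protein; strong numbers were not always called active; many hits fall short of the cut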
# Rce1 inhib – yeast Ras-converting enzyme inhibition; calls only; AID 2563; Q03530; 290,000 compounds, 0.27% hits; yeast membranes, quenched prenylated peptide cleavage fluorescence;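 active means fall in fluorescence gain of 50% or more versus controls, with final raw signal at or below 3038400; inconclusive means same 50% fall but final raw signal above 3038400; inactive means fall in fluorescence gain under 50%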;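 further: plate controls were neutral control wells for no effect and wells lacking membranes for full effect; tested at 10 µM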
# Target sequence (Q03530 whole entry, looked up): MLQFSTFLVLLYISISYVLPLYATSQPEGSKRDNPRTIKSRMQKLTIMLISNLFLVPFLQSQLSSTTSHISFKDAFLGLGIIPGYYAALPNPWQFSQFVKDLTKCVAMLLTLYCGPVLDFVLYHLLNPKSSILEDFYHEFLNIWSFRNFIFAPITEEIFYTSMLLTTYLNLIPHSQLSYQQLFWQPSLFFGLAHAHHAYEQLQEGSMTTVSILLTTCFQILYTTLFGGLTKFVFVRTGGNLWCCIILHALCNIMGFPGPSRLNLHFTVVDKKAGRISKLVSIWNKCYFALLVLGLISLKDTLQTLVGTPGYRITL
# HIV Env fusion – HIV envelope-mediated fusion inhibition. HeLa-JRFL Env/CEM21 cell fusion, luciferase. inhibition, % at 12.3 µM. 360,000 compounds, 1.1% hits. AID 651610;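 active means mean replicate inhibition score of at least 50 and every replicate individually at or above 50; inconclusive means only one of the two criteria met; inactive means mean below 50 and not all replicates reaching 50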;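 further: 0% = plate neutral controls and 100% = maraviroc near 300 nM; one replicate is shown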
# Yeast UUG start – yeast start codon fidelity modulation; S. cerevisiae UUG-firefly luciferase reporter, luminescence/redox ratio; activity score, % at 18.7 µM; 350,000 compounds, 0.13% hits;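 active means replicate mean at a twofold rise or more, about +100% in these data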;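 further: firefly luciferase made from a UUG start codon reports start codon fidelity; reporter light over untreated wells divided by growth signal over untreated wells; some hits fall short of that in this replicate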
# MT1-MMP act inh – blocks activation of human MT1-MMP; GFP/RFP ratio change, % at 20 µM; P50281; 360,000 compounds, 0.061% hits; HT1080 RFP-PRO-GFP cells, GFP/RFP ratio fluorescence, overnight; percent of plate control window, DMSO zero; AID 651647;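 active means GFP/RFP ratio change of at least 30% with cell ATP level not reduced by more than half and red fluorescence within 50% of control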; further: strong numbers were not always called active
#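 Test system: HT1080 RFP-PRO-GFP cells; Benchmarks: DMSO and RFP-L50D-GFP cell wells; Timing: cells overnight before dosing, compound overnight, 37 °C, 5% CO2; Compound: one 20 µM compound dose with 1% DMSO; Read-out: GFP/RFP fluorescence ratio.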
# CSC inhib – blocks cancer stem cells | cancer stem cell-like cells viability, luminescence | inhibition, % at 7.5 µM | 300,000 compounds, 1.1% hits | AID 2717;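 active means mean at 75% or more and at least half the replicates too; inconclusive means mean and replicates disagree; tested in HMLE shEcad cells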;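 further: 0% = median of negative and 100% = median of positive control wells; the first replicate is given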
# PABP FP inh – blocks human PABP binding to poly(A) RNA; P11940; fluorescence polarization; inhibition, % at 35 µM; 290,000 compounds, 1% hits; AID 2014;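 active means 50% or more with normal probe brightness, or confirmed in later tests; inconclusive means above 50% with abnormal brightness, or retests that disagree; inactive means below 50% or failed in later tests; about a fifth of its hits are not listed in these tables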;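 further: calls also rest on retests at 20 µM and on dose response follow-up; controls were probe without protein and protein plus probe with vehicle; some compounds called inactive have numbers as strong as hits; many hits fall short of the cut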
# Target sequence (P11940 whole entry, looked up): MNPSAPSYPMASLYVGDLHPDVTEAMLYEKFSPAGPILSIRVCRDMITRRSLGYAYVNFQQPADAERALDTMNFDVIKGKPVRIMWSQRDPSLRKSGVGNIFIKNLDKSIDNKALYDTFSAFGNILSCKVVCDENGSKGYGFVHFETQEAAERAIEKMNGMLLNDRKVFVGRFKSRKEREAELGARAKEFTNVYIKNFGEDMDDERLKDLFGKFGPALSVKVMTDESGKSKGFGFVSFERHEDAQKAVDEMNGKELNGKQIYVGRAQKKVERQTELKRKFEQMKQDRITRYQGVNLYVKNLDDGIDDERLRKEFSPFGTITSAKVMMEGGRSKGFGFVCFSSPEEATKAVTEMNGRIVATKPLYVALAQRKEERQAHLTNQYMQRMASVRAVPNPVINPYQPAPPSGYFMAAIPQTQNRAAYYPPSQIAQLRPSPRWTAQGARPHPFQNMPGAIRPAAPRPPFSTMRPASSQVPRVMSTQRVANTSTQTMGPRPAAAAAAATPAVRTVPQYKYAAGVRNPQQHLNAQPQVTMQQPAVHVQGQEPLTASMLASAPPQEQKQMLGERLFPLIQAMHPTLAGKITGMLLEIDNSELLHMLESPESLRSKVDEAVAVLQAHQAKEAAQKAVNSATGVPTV
# eIF4H FP inh retest – further read-out of eIF4H FP inh, marked with its call; inhibition, %; compound at 20 µM; confirmation average;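 mean of two retest wells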
# PABP FP inh retest – recorded beside PABP FP inh, whose call it bears; inhibition, %; compound at 20 µM; confirmation repeats;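 mean of two retest wells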
# MT1-MMP act inh RFP – also measured in MT1-MMP act inh; calls as there; RFP signal change, %; measured here: RFP expression control read;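 0 = vehicle wells; hits needed this value within 50% of zero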
# * = called active by the depositor; i = inactive; u = inconclusive; x = not tested or not shown; & = joins results of further samples.
SMILES,eIF4H FP inh,Rce1 inhib,HIV Env fusion,Yeast UUG start,MT1-MMP act inh,MT1-MMP act inh RFP,CSC inhib,PABP FP inh,others
COc1ccc(NC(=O)CCCc2nc3ccccc3c(=O)[nH]2)cc1Cl,x,x,1,-1,0,1,3,x,
O=c1c(-c2ccc3c(c2)OCCO3)coc2c(CN3CCOCC3)c(O)ccc12,-3,i,x,-2,-1,0,-5,-1,
CC(C)(C)SC(C(=O)N1CCOCC1)c1ccc(Br)cc1 (centres undefined),-8,i,4,6,2,1,-4,4,
O=C(CCNC(=O)c1ccc(Cl)cc1)Nc1ccccc1Cl,-5,i,-3,-12,0,2,-3,11,
CN(C)CCCNS(=O)(=O)c1ccc(Cl)s1,u,i,-2,-11,1,5,-10,u,
Cc1ccccc1OCC(=O)NC(=S)Nc1ccc2c3c(cccc13)CC2,6,i,-12,-28,-2,-1,-23,4,
CCCCC(=O)c1c(O)c2ccccc2oc1=O,1,i,x,5,0,1,4,5,
COc1ccc(/C=C/C(=O)c2ccccn2)cc1,47,i,-16,x,-5,2,1,-2,
O=C(Nc1ccc(S(=O)(=O)Nc2ncccn2)cc1)C1CC(=O)N(c2ccccc2)C1 (centres undefined),x,x,-12,2,-1,1,x,x,
CCN(CC)CCNC(=O)c1cc(Br)c(N)cc1OC,x,x,-9,-23,3,5,-5,x,
CC(NC(=O)CSc1nnc(-c2cccc(S(=O)(=O)N3CCCCC3)c2)o1)C12CC3CC(CC(C3)C1)C2 (centres undefined),1,i,x,5,-16,-27,9,6,
CNc1oc(-c2ccccc2)nc1S(=O)(=O)c1ccc(C)cc1,0,i,12,-3,-2,-6,9,6,
Cc1ccc(-n2c(C)cc(C(=O)CSc3nnnn3C)c2C)cc1,-3,i,-71,-30,3,-6,-5,-3,
O=S(=O)(c1cccs1)N1CCN(c2ncccn2)CC1,2,i,-1,11,-1,0,2,-5,
CCOc1ccc(S(=O)(=O)N(C)CC(=O)NCCN2CCOCC2)cc1,-4,i,-13,x,-2,1,-7,-2,
CS(=O)(=O)N(CC(=O)NCc1ccccn1)c1ccc2c(c1)OCCO2,4,i,x,-18,1,1,1,-4,
Cc1nn(-c2ccccc2)c(Cl)c1/C=N/NS(=O)(=O)c1ccc(Br)cc1,-1,i,19,x,1,-3,-12,-10,
CCC(c1nnnn1C(C)(C)CC)N(CCN1CCOCC1)Cc1cc2cc(C)ccc2[nH]c1=O (centres undefined),7,i,-146,15,-4,0,-7,14,
CCCc1[nH]c2ccc(C(=O)OC)cc2c1CCC,-6,i,-2,-10,-5,0,16,-6,
Cc1ccc(C(=O)O)cc1-n1c(C)cc(C=O)c1C,76,i,9,x,0,6,-3,31,eIF4H FP inh retest=4;PABP FP inh retest=9
NS(=O)(=O)c1cc(C(=O)OCC(=O)Nc2ccccc2[N+](=O)[O-])ccc1Cl,-9,i,3,x,0,4,-13,-8,
CC(C(=O)NCCc1ccc(Cl)cc1)n1c(=O)c2cccn2c2cccnc21 (centres undefined),-6,i,4,-29,1,6,14,-6,
O=C(COC(=O)c1ccc(Br)o1)Nc1cccc(S(=O)(=O)N2CCCCC2)c1,x,x,5,-3,1,4,-20,x,
O=C(c1cccc(Br)c1)N1CCCc2ccccc21,4,x,-11,-2,0,-1,-1,2,
COC(=O)c1ccc(CO/N=C/c2ccc(OC)cc2)o1,6,i,-14,x,-5,0,-18,0,
SMILES,eIF4H FP inh,Rce1 inhib,HIV Env fusion,Yeast UUG start,MT1-MMP act inh,MT1-MMP act inh RFP,CSC inhib,PABP FP inh,others
Cc1ccc2[nH]c(=O)c(C(c3nnnn3CC3CCCO3)N3CCCc4ccccc43)cc2c1 (centres undefined),31,i,-107,-6,-6,13,-4,44,
Cn1c(SCC(=O)NC2CCCC2)nc2cccnc21,-2,i,12,-8,2,2,4,-5,
CC1CCCCC1NC(=O)CCn1ccc2cc(S(=O)(=O)N3CCCC3)ccc21 (centres undefined),7,i,x,14,0,-3,-1,11,
COc1ccc(C(=O)OCC(=O)Nc2sccc2C(N)=O)cc1[N+](=O)[O-],x,x,-4,-11,2,-3,x,x,
Cc1cc(C2=CC(=O)C[C@H](c3ccc4c(c3)OCO4)C2)ccc1F,x,x,2,-6,2,2,23,x,
Cc1[nH]c2ccccc2c1CCNS(=O)(=O)c1ccc(S(N)(=O)=O)cc1,-2,i,13,-40,-6,1,-10,-3,
Cc1cc(C)cc(N(CC(=O)NC2CCCCC2)C(=O)CCCC(=O)Nc2ccccn2)c1,5,i,-3,-8,-2,1,x,-9,
COc1cc(-c2noc(CCC(=O)NC3CCCCC3)n2)cc(OC)c1OC,-5,i,-9,-10,7,3,-6,4,
COc1ccccc1C(=O)NNC(=O)c1cccc(Br)c1,5,i,-9,-17,-4,0,1,2,
Clc1ccccc1OCCN1CCCCC1,7,i,x,-10,x,x,-20,25,
Cc1c(C#N)c2ncn(CC#N)c(=O)c2n1-c1ccccc1,-9,i,x,-11,1,-1,-5,-2,
Cc1ccc(-n2nnnc2SCC(=O)NCCC2=CCCCC2)c(C)c1,-10,i,16,-6,-5,-6,-9,-7,
CC(C)(C)c1cc(C(=O)NNc2cccc(Cl)c2)n(Cc2ccccc2)n1,4,i,11,-10,-2,-6,128*,-15,
O=C(Nc1ccc(OC(F)(F)F)cc1)c1n[nH]c(Cn2cncn2)n1,-3,i,-73,-7,1,-2,-1,7,
CCOC(=O)N1CCN(C2=NC3(CCCCC3)C(C#N)C(=O)N2)CC1 (centres undefined),2,i,-57,-19,2,4,5,10,
CCC(C)c1ccc(O)c(/C=N/O)c1 (centres undefined),1,i,-26,-7,5,4,-19,4,
O=C(Nc1ccccc1C(=O)OCn1nnc2ccccc2c1=O)c1ccco1,-7,i,-17,-11,-1,4,-8,4,
COCCNC(=O)NC12CC3CC(CC(C3)C1)C2,-2,i,3,x,2,1,-7,5,
Cc1ccc2c(C)nc(/N=C(\N)NC(=O)N3c4ccccc4Sc4ccccc43)nc2c1,-16,x,-1&-15,-20,4&-9,2&-12,1,-13,
COCC(=O)N1CCC(Oc2ccc(C(=O)NCCCn3cccn3)cc2)CC1,-12,i,-10,-19,1,4,11,-5,
Cc1ccc(CNC(=O)COC(=O)c2c(C)noc2C)cc1,-6,i,12,-16,1,3,-9,6,
CCCS(=O)(=O)NC(=O)C1(C)CCN(C(=O)c2ccc(OC(F)F)cc2)C1 (centres undefined),x,x,0,-6,2,7,x,x,
COc1ccc(NC(=O)c2nn(C34CC5CC(CC(C5)C3)C4)cc2[N+](=O)[O-])cc1,12*,i,x,x,-3,3,28,57*,eIF4H FP inh retest=97*;PABP FP inh retest=106*
CC(C)(C)OC(=O)N[C@@H](Cc1ccccc1)c1nnc(SCC(=O)c2ccc(Cl)cc2)o1,-12,i,-6,x,6,-13,0,-8,
O=C(c1cc(F)c(F)c(F)c1F)N1CCN(Cc2ccc3c(c2)OCO3)CC1,-11,i,12,1,1,1,4,11,

# The closing 4 records of the part above are carried over, then new ones follow.
SMILES,eIF4H FP inh,Rce1 inhib,HIV Env fusion,Yeast UUG start,MT1-MMP act inh,MT1-MMP act inh RFP,CSC inhib,PABP FP inh,others
CCCS(=O)(=O)NC(=O)C1(C)CCN(C(=O)c2ccc(OC(F)F)cc2)C1 (centres undefined),x,x,0,-6,2,7,x,x,
COc1ccc(NC(=O)c2nn(C34CC5CC(CC(C5)C3)C4)cc2[N+](=O)[O-])cc1,12*,i,x,x,-3,3,28,57*,eIF4H FP inh retest=97*;PABP FP inh retest=106*
CC(C)(C)OC(=O)N[C@@H](Cc1ccccc1)c1nnc(SCC(=O)c2ccc(Cl)cc2)o1,-12,i,-6,x,6,-13,0,-8,
O=C(c1cc(F)c(F)c(F)c1F)N1CCN(Cc2ccc3c(c2)OCO3)CC1,-11,i,12,1,1,1,4,11,
c1ccc(-c2ccc(-c3ccncn3)cc2)cc1,x,i,22,-9,0,-2,-2,x,
O=S(=O)(c1ccc(S(=O)(=O)N2CCCN(Cc3ccccc3)C2)cc1)N1CCCCCC1,-5,i,-5,-30,1,3,-1,5,
O=C(CNC(=O)c1cccc(OC(F)F)c1)OCC(=O)c1ccccc1,-17,i,7,-1,1,5,-8,-10,
CCCCC(=O)NC(=S)Nc1nnn(CCC)n1,-5,i,-8,x,5,6,-21,-8,
CC(C)(C)c1ccc(-c2noc(C(=O)NN)n2)cc1,0,i,-7,-8,0,3,12,1,
COc1ccc(-c2n[nH]c3c2CN(C(=O)c2ccc(F)cc2)CC3)cc1,-12,i,1,-15,2,-1,-5,-8,
CC(=O)NCCC1CCN(C(=O)C2CCC(=O)N(C3CCCC3)C2)CC1 (centres undefined),-11,i,-3,-6,2,5,4,5,
O=[N+]([O-])c1ccc(CS(=O)(=O)c2ncn[nH]2)cc1,-1,i,7,-2,2,5,-17,2,
Cn1ncnc1SCc1cn2cccnc2n1,-2,u,-6,x,1,5,4,2,
COc1cccc2c1cc1c(=O)n(CC(=O)N3CCCCCC3)nc(C)n12,x,i,-1,-11,1,3,-11,x,
CC(=O)c1ccc2c(ccc3ccccc32)c1,-5,i,x,-12,-1,5,-2,-11,
CCOc1cc(/C=N/NC(=O)C(=O)NCc2ccc3c(c2)OCO3)ccc1OCC(=O)N1CCOCC1,-2,i,12,-8,2,2,-13,-11,
COC(=O)c1ccc(-n2nnnc2SCC(=O)Nc2cc(OC)ccc2OC)cc1,11,i,x,x,2,-3,-13,6,
O=C(Cc1cccs1)Nc1ccon1,7,i,x,x,-2,3,-3,0,
COc1cccc(NC(=O)c2ccccc2C(F)(F)F)c1,3,i,3,-4,-1,-2,-4,-4,
COC(=O)Cc1c(C(=O)OC)nnn1-c1cccc(C(F)(F)F)c1,-3,i,-4,x,-5,-1,-11,-2,
CN=C(Nc1ccc(C(=O)OC)s1)c1ccccc1,-2,i,18,x,-4,-3,-13,0,
CCOC(=O)C1=C(C)NC(C)=C(C(=O)OCC)C1C(=O)OCC(=O)NC(C)c1ccccc1 (centres undefined),x,x,7,-5,1,-1,x,x,
CCCCNC(=O)c1c(C)cc(=O)oc1C,-8,i,-7,x,0,-3,x,-4,
O=C(CCCn1c(=S)[nH]c2ccsc2c1=O)NCc1ccco1,9,i,x,-14,5,-1,6,1,
COc1cccc(-c2nn(C)c3sc(C(=O)NCc4ccco4)cc23)c1,-9,i,9,-7,3,-5,-5,3,
O=C(NCCc1ccccc1)C1CCCN1C(=O)Nc1ccc(F)cc1 (centres undefined),-7,i,-124,13,1,4,-13,1,
CCn1c(SCc2ccc(C)cc2)nnc1C1CCN(S(=O)(=O)c2ccc(OC)cc2)CC1,-2,i,-64,-3,-3,-7,5,-2,
CCOC(=O)C1CCN(C(=O)c2cccc(S(=O)(=O)N3CCCc4ccccc43)c2)CC1,x,x,1,-8,0,-6,x,x,
C=CCN(CC=C)CC(=O)Nn1c(C)ccc1C,x,x,12,-1,0,4,x,x,
COc1cc2c(C(=O)N3CCN(c4ccccc4C)CC3)c(C)oc2cc1Br,1,i,x,4,1,-10,20,-3,
COc1ccc(-c2cc(C(=O)Nc3cc(C)on3)c3ccccc3n2)c(OC)c1,-2,i,-20,-20,-1,-2,-7,-10,
C/C(CC(=O)Nc1ccc2c(c1)OCCO2)=N\NC(=O)COc1ccc(C)cc1,5,x,-17,-24,-2,0,-8,7,
CCn1ccnc1CNC(=O)CC1C(=O)NCCN1Cc1ccc(OC)cc1OC (centres undefined),3,i,-31,-3,-2,-1,-9,-1,
c1ccc(N2CCN(CC3CCCCC3)CC2)cc1,2,i,7,10,2,5,97*,6,

# Only part of the results is shown, so the mix of outcomes need not match the whole.
